VCAM-1 rise = enhancers of VCAM-1 display on endothelial cells, cell-based, plate reader, pooled HUVEC, TNFa stimulus (AID 455); HUVEC TNFa-induced VCAM-1 immunofluorescence, plate reader; numbers were filed only for top-ranked candidate wells; augmentation, % at 5 µM; hit rate 0.2% among 10,000;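 active = a compound raising TNF-alpha-driven VCAM-1 surface staining, with its hit status upheld on visual or statistical review; inactive = the rest, including hits rejected on review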;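 note: 0% = TNFa with vehicle and 100% = strongest image-checked hit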
26S disassembly = blocks ATP-dependent breakdown of the yeast 26S proteasome. anti-FLAG beads, GFP-proteasome disassembly, flow cytometry. inhibition of disassembly, % (concentration not given with the values). hit rate 0.2% among 24,000. AID 751;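 active = above 40%; inconclusive = likely self-fluorescent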;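 note: plate controls were ATP control with full disassembly for no effect and ATP-gamma-S intact proteasomes for full effect; higher percent means more bead fluorescence retained so stronger block of disassembly; stock transfer was 100 nL into about 10 µL; wells with too few beads may also be inconclusive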
* marks the source's active call; other numbers are inactive results; i = inactive; ? = inconclusive; . = not tested or not shown.

VCAM-1 rise,26S disassembly,smiles
.,-0.3,CC(CP(=O)(O)O)NC(=O)Cc1ccccc1 (stereo unspecified)
.,-0.3,Cc1ccc(Cn2c3ccccc3c3cn[nH]c(=O)c32)cc1
i,0.8,COc1ccccc1CNC(=O)CCNC(=O)Cn1ccc2ccccc2c1=O
i,-2.8,NCc1cccc(-n2cccn2)c1
.,-2.4,COc1cccc(OCC(=O)Nc2ccccc2NC(C)=O)c1
.,2.0,CCCCN(C)C(=O)C1CCC(=O)N(c2cc(OC)c(OC)c(OC)c2)C1c1ccc(OC)cc1 (stereo unspecified)
.,-5.0,CC1CCN(S(=O)(=O)Cc2ccccc2Cl)CC1
.,-1.6,Cc1cccn2c(=O)c3cc(C(=O)N(C)C)n(C)c3nc12
.,-2.2,COCCN1Cc2cccc(C(=O)NCc3ccccc3OC)c2C1=O
i,?,O=C(Nc1ccc2c(c1)nc1n2CCN(Cc2ccccc2)C1)c1cccs1
.,-0.4,CCOC(=O)N1CCN(C(=O)C2CCN(S(=O)(=O)N3CCCC3)CC2)CC1
.,-2.0,CCN1CCN(C(=O)CS(=O)Cc2nc(-c3ccc(OC)cc3)oc2C)CC1 (stereo unspecified)
.,-0.7,CC(C)CC1N=C2c3ccccc3N=C(SCc3cc(=O)n4ccccc4n3)N2C1=O (stereo unspecified)
i,-0.3,CCOC(=O)c1ccc(N2C(=O)CC(N3CCN(C/C=C/c4ccccc4)CC3)C2=O)cc1 (stereo unspecified)
.,-0.3,O=C(NCc1cccs1)Nc1cccs1
i,-10,CCOc1ccc(CCNc2nc3c(c(=O)n(C)c(=O)n3C)n2CC)cc1OCC
.,-0.3,N#CC1=C2SCN(Cc3ccccc3)CN2C(=O)CC1c1ccccc1F (stereo unspecified)
.,0.1,CCCn1c(=O)c2c(c3ccccc31)OC(C)C(=O)N2 (stereo unspecified)
.,0.7,O=C(O)Cn1cccc1C(=O)c1ccccc1
.,-2.0,CCOC(=O)c1c(C)c(-c2ccccc2)n(CC(=O)N2CCCC2)c1C

(more compounds)
VCAM-1 rise,26S disassembly,smiles
.,-0.2,CCOC(=O)c1nnn(-c2nonc2N)c1-c1ccc(OC)cc1
.,0.2,COc1ccc(N(C)S(=O)(=O)c2cccc3cccnc23)c(OC)c1
.,2.3,CN1CCN(S(=O)(=O)c2ccc3[nH]cc(C(=O)O)c(=O)c3c2)CC1
.,0.8,CC(=O)Nc1cc(C(=O)O)ccc1S(=O)(=O)c1ccc(Cl)cc1
i,0.8,COc1cccc(NC(=O)Cc2nnc(SCC(=O)c3ccccc3)n2C)c1
i,-0.3,CCC(C)(C(=O)NC1CCCC1)N(Cc1cccs1)C(C)=O (stereo unspecified)
i,0.4,Cn1c(=O)oc2cc(S(=O)(=O)NC3CCN(Cc4ccccc4)CC3)ccc21
i,0.1,N#CC1=C(N)OC(c2ccccc2)=C(C#N)C1c1ccc2c(c1)OCO2 (stereo unspecified)
.,-0.3,COc1cc2nc(NCC3CCCO3)n3nc(-c4cccnc4)nc3c2cc1OC (stereo unspecified)
i,0.1,CC(=O)c1ccc2c3c(cccc13)C(=O)N(c1c(C)nn(C)c1C)C2=O
.,-0.6,O=C(Nc1cccnc1)c1cc(-c2ccco2)on1
.,-0.8,Cc1ccc(C(=O)NCc2ccc3c(c2)OCO3)cc1N1CCCC1=O
.,-2.8,COC(=O)C(C)Sc1nc2c([nH]c3ccccc32)c(=O)n1C (stereo unspecified)
i,0.3,O=C(NC1CCCc2ccccc21)C1CCN(c2nnc(-n3cccc3)s2)CC1 (stereo unspecified)
i,-2.6,CCn1cc(C(=O)OCc2ccc(F)cc2)c(=O)c2ccc(C)nc21
.,-2.9,COc1ccc(CNc2nc3c(c(C(F)(F)F)n2)CCCCC3)cc1
.,1.0,CCOC(=O)c1cn2c3c(c(F)c(F)c(F)c3c1=O)SC(N1CCCC1)=N2
.,-0.8,CSc1cccc(NC(=O)CSc2nc3ccccc3o2)c1
i,1.0,CCN(CC)CCN1C(=O)Cn2c(C)c(C)c3cccc1c32
.,-0.3,COc1cc2c(C(=O)NCc3ccc(C)o3)cn(CC(C)C)c(=O)c2cc1OC

Continuation:
VCAM-1 rise,26S disassembly,smiles
i,0.0,COc1cccc(NC(=O)N2CCCC2C(=O)Nc2ccc3c(c2)OCO3)c1 (stereo unspecified)
i,1.5,Cc1cccc(N2CCN(C(=O)Cn3ccc4ccccc4c3=O)CC2)c1C
i,-1.6,CCS(=O)(=O)N1CCC(C(=O)NC2CCCCC2)CC1
.,-0.5,COC(=O)c1ccc(NC(=O)Cn2nc(SC)n(N)c2=S)cc1
.,-1.9,O=C1NC2(CCCC2)N=C1c1ccc(Cl)cc1
.,4.4,COc1cccc2sc(N3CCN(c4nc5ccccc5s4)CC3)nc12
.,0.5,COc1ccc(CCNC(=O)CSc2nnc(Cn3c(=O)sc4ccccc43)n2C)cc1OC
.,4.6,Cc1cc(=O)[nH]c(SCc2nc3ccccc3n2Cc2ccccc2)n1
i,0.6,Cc1csc(NC(=O)CSc2nsc(SCC(=O)Nc3nc(C)cs3)c2C#N)n1
i,-2.0,Cc1ccc(S(=O)(=O)N2CCN(c3nc(C)nc4sc(C)c(C)c34)CC2)cc1
.,-0.5,O=C(C1CCC(CNc2c(N3CCOCC3)c(=O)c2=O)CC1)N1CCN(c2ccccc2)CC1 (stereo unspecified)
i,-0.4,COc1ccccc1OCCn1c(=O)sc2ccccc21
.,-0.7,COc1ccc(N2C(=O)CCC(C(=O)O)C2c2ccc(F)cc2)cc1 (stereo unspecified)
.,0.0,CC(=O)N1CCc2cc(S(=O)(=O)NC(CC(C)C)C(=O)N3CCc4ccccc4C3)ccc21 (stereo unspecified)
.,-0.4,O=C(Nc1nc(-c2ccccn2)cs1)c1ccc(S(=O)(=O)N2CCCCC2)cc1
.,-0.1,O=C(NCCN1CCOCC1)c1csc2c1CCCCC2
.,-0.6,COc1ccc(CCNC(=O)CCS(=O)(=O)c2ccc3c(c2)CCN3C(C)=O)cc1OC
i,4.6,COc1cc(CC(=O)NCc2ccc3c(c2)OCO3)cc(OC)c1OC
.,2.5,Cc1ccc(N2C(=O)CSC2c2cccnc2)cc1F (stereo unspecified)
.,-0.9,CCc1cc(C=NC2CCCCC2)c(O)s1

New compounds follow:
VCAM-1 rise,26S disassembly,smiles
i,0.7,CCCCN(C)Cc1c(C)[nH]c2c(Cl)cccc2c1=O
.,0.5,CC(C)N1C(=O)CCC1C(=O)NC1CCCC1 (stereo unspecified)
.,-1.1,CC(C)C1N(C(=O)CN2CCCC2)CCN1S(=O)(=O)c1ccccc1 (stereo unspecified)
.,0.8,COc1ccc(NC(=O)C2CCCN(S(=O)(=O)c3cccnc3)C2)c(OC)c1 (stereo unspecified)
.,0.2,COc1ccccc1-c1cc(C(F)(F)F)nc(N2CCCC2)n1
i,-0.6,CCN1C(=O)CC(N2CCC(Nc3ccc(F)cc3)CC2)C1=O (stereo unspecified)
i,0.5,Nc1ncnc2nc(Sc3ccc(Cl)cc3)[nH]c12
i,1.3,COc1ccc(C(=O)N(CCCO)Cc2cc3c(C)ccc(C)c3[nH]c2=O)cc1OC
.,1.6,COc1ccc(OC)c(CCNC(=O)C2CCN(c3nnc(-n4cccc4)s3)CC2)c1
i,0.3,O=c1c2ccccc2nc(-c2cccc(Cl)c2)n1O
.,0.2,CCc1ccc(NC(=O)CNS(=O)(=O)c2c(C)noc2C)cc1
.,-0.4,Cc1sc2nc3ccc(N4CCCC4)nn3c(=O)c2c1C
.,-2.3,COc1ccccc1CNC(=O)c1ccc(NS(=O)(=O)c2c(C)noc2C)cc1
i,0.8,CCOC(=O)CSc1nc2ccccc2n2cnnc12
i,0.8,COc1cc2[nH]c(=O)n(CCCCCC(=O)NCCCN3CCCC3=O)c(=O)c2cc1OC
.,2.3,Cc1ccc(-n2c(SCC(=O)N3CCCC3)nc3c(c2=O)SCC3)cc1
.,0.8,O=C(Cn1nc(-c2ccc(Cl)cc2)ccc1=O)NCC1CCCO1 (stereo unspecified)
.,-0.7,CCN(Cc1ccccc1)S(=O)(=O)c1ccc(C(=O)Nc2nnc(C3CC3)o2)cc1
.,0.1,O=C(Nc1ccc2c(c1)OCO2)C1CCN(Cc2cnn(-c3ccccc3)c2-n2cccc2)CC1
.,-0.5,O=C1c2ccccc2C(O)N1Cc1ccco1 (stereo unspecified)

Later entries:
VCAM-1 rise,26S disassembly,smiles
.,-1.7,Cc1cccc(NC(=O)C2CCN(S(=O)(=O)c3c(C)nn(C)c3C)CC2)n1
.,-1.1,COc1ccc(NC(=O)CN(c2cc(C)cc(C)c2)S(=O)(=O)c2c(C)noc2C)cc1
i,-0.5,CC(C)Cc1nc2oc3c(N4CCN(CCO)CC4)ncnc3c2c2c1CCCC2
i,0.1,O=C1CC(c2ccsc2)c2cc3c(cc2N1)OCCO3 (stereo unspecified)
.,-0.1,CCC1CCCCN1C(=O)Cn1c(=O)n(CCC(=O)NCc2ccco2)c(=O)c2sccc21 (stereo unspecified)
i,-0.2,CCN(CC)CCCNC(=O)c1nn(-c2ccc(OC)cc2OC)c(=O)c2ccccc12
i,0.7,CC(C)(C)n1ncc2c(=O)n(CC(=O)NCCc3ccccc3)cnc21
.,-0.6,O=C(c1cc2c(ccc3ccccc32)oc1=O)N1CCN(CCO)CC1
i,-3.5,CCCCOC(=O)CNc1nnc(SCC(=O)OCC)[nH]c1=O
.,-0.1,CCOCCn1c(-c2ccc(OC)cc2)nc2ccccc21
i,-0.2,CC(C)(C)C(=O)NC1CCN(C(=O)N2CCCC2)CC1
i,0.9,CC(=O)OCC[N+](C)(C)C
.,1.8,CN1CCN(C(=O)c2ccc3c(c2)N(Cc2cccc(Cl)c2)C(=O)c2ccccc2S3=O)CC1 (stereo unspecified)
.,4.9,O=C(Nc1cccc(-c2cn3cccnc3n2)c1)c1ccco1
.,-0.5,COc1ccc(-n2c(=O)c3c4c(sc3n(CC(=O)NCc3ccco3)c2=O)CCC4)c(OC)c1
.,0.7,CCOC(=O)c1c(C)c(C(=O)Nc2cc(OC)ccc2OC)c(C)n1CC
.,-0.2,O=C(Nc1cccnc1)c1cc(-c2ccc(Br)cc2)on1
.,3.8,Cc1ccc(CNc2nc3ccccc3n3nnnc23)cc1
.,-0.1,Cc1ccc(N(C(=O)CC2NC(=O)NC2=O)C2(C(=O)NC3CCCC3)CCCCC2)cc1 (stereo unspecified)
i,-56,Cc1ccc2c(c1)C1CCCC3C1N2CC(=O)N3Cc1ccccc1 (stereo unspecified)

Among those listed so far, four contain a COOH group:
VCAM-1 rise,26S disassembly,smiles
.,0.7,O=C(O)Cn1cccc1C(=O)c1ccccc1
.,2.3,CN1CCN(S(=O)(=O)c2ccc3[nH]cc(C(=O)O)c(=O)c3c2)CC1
.,0.8,CC(=O)Nc1cc(C(=O)O)ccc1S(=O)(=O)c1ccc(Cl)cc1
.,-0.7,COc1ccc(N2C(=O)CCC(C(=O)O)C2c2ccc(F)cc2)cc1 (stereo unspecified)

Record cards (already shown):
Entry for `CCc1cc(C=NC2CCCCC2)c(O)s1` = VCAM-1 rise: .; 26S disassembly: -0.9
Entry for `COc1ccc(N2C(=O)CCC(C(=O)O)C2c2ccc(F)cc2)cc1` (stereo unspecified) = VCAM-1 rise: .; 26S disassembly: -0.7
Entry for `COc1ccccc1-c1cc(C(F)(F)F)nc(N2CCCC2)n1` = VCAM-1 rise: .; 26S disassembly: 0.2

(next part)
VCAM-1 rise,26S disassembly,smiles
.,-0.7,Cc1nn(C)c(C)c1S(=O)(=O)NC1CCCc2ccccc21 (stereo unspecified)
.,0.1,CCOC(=O)Cn1c(=O)n(C2CCCC2)c(=O)c2ccccc21
.,0.2,CCOC(=O)c1c(C)c(C(=O)N2CCCCCC2)c(C)n1CC
.,0.8,Cc1ccc(-n2c(Cc3cccn3C)nnc2SCC(=O)NCc2ccco2)cc1
.,-1.4,CC(C)CC(NS(=O)(=O)c1ccc2c(c1)oc(=O)n2C)C(=O)N1CC=C(c2ccccc2)CC1 (stereo unspecified)
.,-0.2,COc1ccc(-n2c(=S)[nH]c3cc(C(=O)NCCCN4CCCC4=O)ccc3c2=O)cc1
.,-1.2,COc1ccc(C(=O)N2CCN(c3ccc(C)cc3)CC2)cc1OC
i,1.3,Cc1ccc(CCNC(=O)CC2Oc3ccc(C)cc3NC2=O)cc1 (stereo unspecified)
i,-2.3,COC(=O)C1(C(=O)OC)Sc2ccccc2C1=O
.,-2.3,COc1ccc(NC2=NC3(CCCCC3)N=C(N)N2)cc1
i,4.5,Cc1cccc(NC(=O)c2oc3c(c2C)C(=O)CC(C)(C)C3)n1
i,-1.6,Cc1[nH]c(=O)[nH]c(=O)c1S(=O)(=O)Nc1ccc(Oc2ccccc2)cc1
i,7.9,O=S(=O)(c1cccc(S(=O)(=O)N2CCC(N3CCCCC3)CC2)c1)N1CCOCC1
.,0.4,COc1cccc(-n2c(SCC(=O)N3CCOCC3)nc3c([nH]c4ccccc43)c2=O)c1
.,-2.6,O=C(CSc1nccn1-c1ccccc1)Nc1ccc2c(c1)OCO2
.,1.0,CCOC(=O)C(C)Sc1nnc(Cn2c(=O)sc3ccccc32)n1-c1ccccc1 (stereo unspecified)
.,1.8,CS(=O)(=O)N1CCCC(C(=O)NCc2ccccn2)C1 (stereo unspecified)
i,1.3,CCC(=NC(C)c1ccccc1)c1c(O)n(C)c(=O)n(C)c1=O (stereo unspecified)
.,-3.4,COCCNC(=O)c1ccc(Cn2c(=S)[nH]c3cc4c(cc3c2=O)OCO4)cc1
i,0.7,CCCOc1cccc(-c2nnc(N)s2)c1
i,-0.7,CC1CCC(NC(=O)Cn2ncc3ccccc32)CC1 (stereo unspecified)

An excerpt; count on the stated rates, not on these rows.
